High-throughput results: PubChem BioAssay, National Center for Advancing Translational Sciences (NCATS)
RE007 growth inh: less growth of the S. pombe RE007 Vpr strain; S. pombe RE007 Vpr strain, BacTiter-Glo ATP luminescence, 24 h; control for the full effect not named in the record; Potency, µM (top dose mostly 92.2 µM), for the others: at the highest dose activity change, negative = less growth; hit rate 0.21% among 360,000; active = well fitted falling curve with a large enough effect; inconclusive = small, poorly fitted or top-dose-only effect; inactive = no such curve, though single readings can be large or run the other way;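 also: % is scaled to controls: 0 for no effect and ±100 for the full control effect; nearly all actives have a fitted effect of over 50% in size; the assay follows cell death caused by Vpr and the record does not say whether a fall means rescue or toxicity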
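Fission yeast strain RE007, carrying one chromosomally integrated HIV-1 vpr copy, was seeded at OD 0.01 in PMG+AL medium with 23 nL pinned compound. After 24 h at 30 °C and 99% humidity, viability was read by BacTiter-Glo luminescence.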
Cruzain Triton: blocks cruzain activity in presence of Triton detergent | P25779 | purified cruzain, Z-FR-AMC fluorescence, 0.01% Triton | Potency, µM, for inactives: max response, negative = inhibition, most hits filed as inhibitors | hit rate 0.43% among 200,000 | AID 1478;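 also: plate controls were neutral wells for no effect and buffer without enzyme for full effect; nearly all actives have a fitted effect of over 40% in size; top concentration of the series not given in the record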
Target sequence (P25779 123-467 limits assumed): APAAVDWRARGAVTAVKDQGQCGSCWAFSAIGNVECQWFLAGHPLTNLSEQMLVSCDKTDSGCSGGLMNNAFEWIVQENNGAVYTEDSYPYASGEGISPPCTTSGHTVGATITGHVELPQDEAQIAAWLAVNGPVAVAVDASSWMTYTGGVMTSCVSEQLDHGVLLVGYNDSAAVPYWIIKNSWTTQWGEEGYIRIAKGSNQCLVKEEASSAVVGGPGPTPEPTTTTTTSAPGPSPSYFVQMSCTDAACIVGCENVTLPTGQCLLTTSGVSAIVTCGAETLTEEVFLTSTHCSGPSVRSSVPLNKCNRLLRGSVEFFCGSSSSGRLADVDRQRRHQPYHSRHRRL
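Detergent-containing run (0.01% Triton X-100) in acetate buffer pH 5.5 with 5 mM DTT: enzyme at 1.5 nM final, 15 min compound preincubation at room temperature, then 2 uM Z-FR-AMC substrate. Activity taken as 60 s fluorescence increase at 360/450 nm.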
NS1 inh: blocks influenza NS1 protein function; S. cerevisiae slowed by influenza A NS1, growth recovery by OD600; AID 2326; hit rate 0.4% among 270,000; Potency, µM (titrated, usually from 46.1 µM), for the others: at the top dose activity, positive = more growth; active means well fitted rising curve with a large enough effect; inconclusive means small, poorly fitted or top-dose-only effect; inactive means no such curve, though single readings can be large or run the other way; also: nearly all actives have a fitted effect of over 50% in size
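In this qHTS, NS1 from influenza A is expressed in budding yeast, where it slows growth. Cells are switched from glucose to 2% galactose medium (pH 6.0, -URA), treated with compound, and growth recovery is read at OD600.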
SARS PLP yeast: blocks SARS-CoV papain-like protease in a yeast assay. S. cerevisiae expressing SARS-CoV PLpro, growth rescue; control for the full effect not named in the record. AID 485353. hit rate 0.19% among 330,000. Potency, µM (doses to about 32.9 µM), without a hit: at the top dose activity, positive = growth rescue; active means well fitted rising curve with a large enough effect; inconclusive means small, poorly fitted or top-dose-only effect; inactive means no such curve, though single readings can be large or run the other way; also: 0% is about no effect; nearly all actives have a fitted effect of over 55% in size; growth read by luminescence after 48 h
Marburg entry inh: Marburg virus entry inhibition; hit rate 1.8% among 300,000; Potency, µM (titrated, usually from 37.8 µM), for the others: at the highest dose activity change, negative = inhibition, most hits filed as inhibitors; Marburg virus pseudotyped entry inhibition, cell reporter; control for the full effect not named in the record; about a third of the inactives were read at about 46 µM; active = well fitted inhibition curve with a large enough effect; inconclusive = small, poorly fitted or top-dose-only effect, or effect the other way; inactive = flat fitted curve, though single readings scatter; tested in HEK293 cells; about a fifth of its hits are not listed in these tables; also: % is scaled to controls: 0 for no effect and ±100 for the full control effect; luciferase read-out
StopGo reporter: FMDV 2A StopGo reporter, luciferase signal | AID 1159524 | human cells with a luciferase reporter of 2A StopGo recoding; control for the full effect not named in the record | Potency, µM (highest dose often 57.9 µM), for the others: top-dose signal change, negative = less light | hit rate 1.2% among 410,000; active = well fitted falling curve with a large enough effect; inconclusive = small, poorly fitted or top-dose-only effect; inactive = no such curve, though single readings can be large or run the other way; tested in HEK293T cells; also: % is scaled to controls: 0 for no effect and ±100 for the full control effect; nearly all actives have a fitted effect of over 45% in size; luciferase light after 4 h
Cruzain noTriton: cruzain (T. cruzi) inhibition without detergent. hit rate 2.3% among 200,000. purified cruzain, Z-FR-AMC fluorescence, no detergent. Potency, µM, for inactives: max response, negative = inhibition, usual class: inhibitors;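 also: plate controls were enzyme without inhibitor for no effect and buffer without enzyme for full effect; nearly all actives have a fitted effect of over 40% in size; top concentration of the series not given in the record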
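Detergent-free condition (0.00005% Triton X-100) in acetate buffer pH 5.5 with DTT. 1.5 nM enzyme and compound were pre-mixed 15 min, then 2 uM Z-FR-AMC substrate added; reaction progress from fluorescence change between first and third reads (60 s).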
Lassa entry inh: Lassa virus entry inhibition | Lassa virus pseudotype entry inhibition, cell reporter; control for the full effect not named in the record | hit rate 1.2% among 300,000 | Potency, µM (titrated, usually from 37.9 µM), for inactives: top-dose activity change, negative = inhibition, most hits filed as inhibitors | AID 540256; active means well fitted inhibition curve with a large enough effect; inconclusive means small, poorly fitted or top-dose-only effect, or effect the other way; inactive means flat fitted curve, though single readings scatter; tested in HEK293 cells; also: % is scaled to controls: 0 for no effect and ±100 for the full control effect; nearly all actives have a fitted effect of over 50% in size; luciferase read-out
* = called active by the depositor; ? = inconclusive; / = not tested or not shown; [ ] = another dose, or the depositor's remark. Unless noted, calls follow the shape of the dose curve; as a rule, active = well fitted curve in the direction sought with a large enough effect; inconclusive = small, poorly fitted or top-dose-only effect, or another doubt; inactive = no such curve, though single readings can be large; an effect the other way counts as inactive or inconclusive. Potency is read from the fitted curve at half-maximal effect.

Values run as follows: RE007 growth inh, Cruzain Triton, NS1 inh, SARS PLP yeast, Marburg entry inh, StopGo reporter, Cruzain noTriton, Lassa entry inh
- COC(=O)c1ccc2c(=O)n(CC3CCCO3)c(=S)[nH]c2c1 (configuration not stated)
→ -8%, -2.7%, -3%, 0%, -10%, /, -8%, 2%
- COc1ccccc1CNC(=O)c1ccccc1OC
→ -7%, 3.1%, -20%, 3%, 4%, /, 2%, -13%
- COc1cc(C(c2sc3nc(C)nn3c2O)N2CCN(c3ccccc3)CC2)cc(OC)c1OC (configuration not stated)
→ 4%, -3.4%, -104%, 7%, /, -13%, ?, /
- CCCCCc1ccc(CC(=O)O)cc1
→ -1%, 2.5%, -226%, -24%, -1%, -9%, 7%, 10%
- COc1cccc(/C=N/Nc2nnc3c(n2)[nH]c2ccccc23)c1OC
→ -5%, /, -1%, -1%, ?, 23%, /, ?
- Cc1cc2nc(C(C)(C)C)cc(N)n2n1
→ 0%, /, 3%, 1%, 10%[46.1 µM], -6%, /, -8%[46.1 µM]
- CCOC(=O)N(C)S(=O)(=O)c1ccccc1[N+](=O)[O-]
→ 2%, /, /, 3%, -1%[46.1 µM], -17%, /, -1%[46.1 µM]
- CC(C)C(C(=O)NCc1ccco1)N(C(=O)CNS(=O)(=O)c1ccccc1)C1CCCC1 (configuration not stated)
→ 3%, -1.9%, -7%, 3%, ?, 17%, -6%, -19%
- Clc1ccc(-c2nnc(CNC3CC3)o2)cc1
→ -10%, -0.3%, -9%, 1%, 12%, 8%, -8%, 12%
- CN(C)CCCNc1oc(-c2ccccc2Cl)nc1S(=O)(=O)c1ccc(F)cc1
→ 5%, /, 1%, 3%, ?, 19%, /, ?
- O=S(=O)(NCCc1ccccc1)c1ccc(Br)cc1
→ 22%, /, -41%, -2%, 12%[46.1 µM], 66%[activator], /, 3%[46.1 µM]
- Nn1c(Cc2cccc3ccccc23)nnc1SCc1c(F)cccc1Cl
→ 2%, -6.9%, -3%, 2%, -6%, -8%, -13%, -7%
- CC(=O)Nc1ccc2c(c1)CN(c1cc(C)ccc1C)CO2
→ -1%, -2.6%, 9%, 1%, -16%, ?, 15%, -4%
- CCOC(=O)CNC(=O)C(Cc1ccccc1)NS(=O)(=O)c1ccc2c(c1)CCC(=O)N2 (configuration not stated)
→ -12%, /, 7%, /, 17%, 1%, /, 19%
- CC(Oc1ccccc1F)c1nnc(SCC(=O)Nc2ccc(N3CCOCC3)cc2)o1 (configuration not stated)
→ 6%, /, /, 1%, 2%, -12%, /, 3%
- Cc1c(CCC(=O)O)c(=O)oc2cc3occ(-c4ccc(Cl)cc4)c3cc12
→ -7%, /, 6%, -5%, 12%[46.1 µM], -9%, /, -3%
- O=S(=O)(O)c1ccc2c(c1)C(C(Cl)(Cl)Cl)OC(C(Cl)(Cl)Cl)O2 (configuration not stated)
→ -11%, /, /, /, -2%, -26%, /, ?
- Cc1cc(C)c(S(=O)(=O)Cc2ccccc2)c(Cl)n1
→ 2%, /, 2%, 0%, -2%, 0%, /, ?
- CCOc1ccc(N(CC(=O)NCc2ccccc2C)S(C)(=O)=O)cc1
→ 1%, /, 9%, 3%, /, 38%[activator], /, /
- CC(=O)NS(=O)(=O)c1ccc(NC(=O)c2cc3c(=O)n4ccccc4nc3s2)cc1
→ 4%, /, 0%, 0%, 15%[46.1 µM], -17%, /, 5%[46.1 µM]
- CN(CC(=O)Nc1c(Cl)cccc1Cl)C(=O)CNC(=O)c1ccco1
→ 2%, /, /, -1%, -10%, -20%, /, 6%
- COc1cc(NC(=O)CSc2nccc(C)n2)c(C)cc1[N+](=O)[O-]
→ 12%, -4.7%, ?, -1%, ?, -9%, -3%, 21%
- O=C(Nc1ccc(Cl)cc1)N1CCCC(Cn2cccc2)C1 (configuration not stated)
→ -25%, /, -8%, -2%, 5%[46.1 µM], 17%, /, 0%
- Cc1csc2nc(CNS(=O)(=O)N(C)C)cn12
→ 6%, 2.1%, 4%, 8%, /, 2%, -24%, /
- Cc1cc(NC(=O)CSc2nnc(-c3c[nH]c4ccccc34)n2-c2ccc(Cl)cc2)no1
→ 14%, 6.1%, -8%, ?, -1%, 2%, -1%, -2%
- Cc1ccc(C)c(N2CCN(C(=O)CCc3nc(-c4ccccc4F)no3)CC2)c1
→ 4%, /, /, 0%, 0%, -8%, /, /
- CCCC(=O)Nc1ccc2c(c1)nc(CN1CCCC1)n2C
→ 1%, 2.5%, -2%, 13%, 4%[46.1 µM], -8%, 11%, 1%
- O=C(Nc1ccc2c(c1)OCO2)c1cccc(S(=O)(=O)N2CCCC2)c1
→ 11%, -7.5%, -9%, -9%, ?, -17%, 2%, 9%
- O=C(CSc1nnc(CCCN2C(=O)c3cccc4cccc(c34)C2=O)n1-c1ccccc1)N1CCCCC1
→ -25%, -9.8%, -5%, 4%, ?, ?, 17%, -10%
- CCc1ccc(NC(=O)c2noc3c2CCC3)cc1
→ ?, -20%, -6%, -7%, -25%, -61%, -7%, ?
- O=C(Nc1ccc2c(c1)nc1n2CCOC1)c1ccccc1
→ -23%, 1.6%, -10%, -3%, -3%, 11%, -3%, ?
- O=C1NCC(COCc2ccco2)O1 (configuration not stated)
→ ?, 2.3%, ?, 1%, ?, /, -4%, 20%
- Clc1ccc(-c2csc(Nc3ccccc3)[n+]2Cc2ccco2)c(Cl)c1
→ -19%, /, -3%, -14%, ?, -3%, /, 4%
- O=C(COc1ccc(N2C(=O)c3ccccc3C2=O)cc1)c1ccccc1
→ -7%, 1.0%, -5%, 10%, 0%, 4%, 0%, 6%
- Cc1ccc(C(=O)NNC(=O)CCC(=O)Nc2cccc(Cl)c2C)cc1
→ -2%, 5.8%, 1%, 13%, ?, 12%, -2%, 6%
- CCC(Cc1ccccc1)NC(=O)c1oc(=O)c2ccccc2c1-c1ccccc1 (configuration not stated)
→ /, -1.4%, /, /, /, ?, 4%, ?
- O=C(c1ccc(NS(=O)(=O)/C=C/c2ccccc2)cc1)N1CCCCC1
→ 3%, /, /, -5%, ?, 17%, /, -18%
- CCCCCC(=O)NNC1CC(=O)N(c2ccccc2)C1=O (configuration not stated)
→ -6%, /, -1%, 0%, ?, -5%, /, 12%[46.1 µM]
- Cn1nnc(C(O)CNCc2ccc(Cl)cc2)n1 (configuration not stated)
→ -2%, /, /, 1%, ?, -13%, /, 2%
- COCc1ccc(C(=O)N2CCCC(CCC(=O)NCc3ccccc3F)C2)o1 (configuration not stated)
→ 12%, /, 1%, -1%, 5.6µM*, 38%[activator], /, 2%

One compound at a time, from the list above. Order of screens: RE007 growth inh	Cruzain Triton	NS1 inh	SARS PLP yeast	Marburg entry inh	StopGo reporter	Cruzain noTriton	Lassa entry inh
Cn1nnc(C(O)CNCc2ccc(Cl)cc2)n1 (configuration not stated) is entered as -2%	/	/	1%	?	-13%	/	2%
Cc1ccc(C(=O)NNC(=O)CCC(=O)Nc2cccc(Cl)c2C)cc1 is entered as -2%	5.8%	1%	13%	?	12%	-2%	6%

Going on with the list.
Values run as follows: RE007 growth inh, Cruzain Triton, NS1 inh, SARS PLP yeast, Marburg entry inh, StopGo reporter, Cruzain noTriton, Lassa entry inh
- CSc1ccc(-c2nnc(NC(=O)c3ccc4c(c3)OCCO4)o2)cc1
→ /, 3.0%, /, /, /, -8%, 5%, 2%[46.1 µM]
- O=C(c1ccco1)N(CCC(c1ccccc1)c1ccco1)Cc1ccco1 (configuration not stated)
→ 33%, ?, 7%, -9%, ?, ?, ?, -29%
- CN(Cc1ccccc1)c1ccc2nnc(-c3ccccc3)n2n1
→ 20%, -7.4%, -3%, 9%, ?, -23%, 7%, -25%
- CC(=Nc1ccc(Br)cc1)c1sc2ccccc2c1O
→ 1%, /, -2%, -1%, /, 30%, /, /
- O=C1N=c2ccccc2=C1c1sc(Nc2ccc(O)cc2)nc1O
→ 5%, /, /, 1%, 15%[46.1 µM], 39%[activator], /, 9%
- O=C(NCc1ccco1)C1CCCN(S(=O)(=O)c2cccc3nonc23)C1 (configuration not stated)
→ -2%, -1.2%, ?, /, 0%, 0%, 2%, 3%
- COc1ccc2cnnc(SCC(=O)Nc3ccc(C(=O)O)cc3)c2c1OC
→ 5%, -8.2%, ?, -3%, ?, 0%, -8%, -21%
- CCOc1ccc(NC2c3ccccc3C(=O)N2Cc2ccc3c(c2)OCO3)cc1 (configuration not stated)
→ 20%, -0.9%, -2%, -10%, /, 26%, 0%, /
- C#CCOCCOCCOCCNc1nc(N2CCN(C(=O)Cn3cc(CC(C)O)nn3)CC2)nc(N2CCN(C(=O)[C@H](C)n3cc(CCCN=C(N)N)nn3)CC2)n1 (some centres not stated)
→ -17%, 1.2%, -3%, -19%, -4%, 5%, -1%, 1%
- COc1cc(OC)c(NC(=O)N2CCOCC2)cc1Cl
→ 2%, /, 2%, -8%, 3%, 5%, /, ?
- CC(Sc1ccccc1)C(=O)NCCc1ccccc1 (configuration not stated)
→ 4%, /, -6%, -1%, /, 61%[activator], /, /
- O=C(O)CSc1nnc(-c2ccc(S(=O)(=O)N3CCCC3)cc2)n1Cc1ccco1
→ -3%, 4.8%, 10%, 8%, 9%, -5%, 2%, -4%
- Cc1cccc(-n2c(C)cc(/C=C3/C(=N)N4C(c5ccccc5)=CSC4=NC3=O)c2C)c1
→ -5%, -3.5%, 12%, -1%, 15%, 0%, 5µM*, 5%
- Cc1nc(C)c(-c2ccc(SCc3ccccc3C)nn2)s1
→ 5%, /, 0%, -11%, /, 35%[activator], /, /
- CCOC(=O)CSc1nnc(-c2c[nH]c3ccccc23)o1
→ -4%, /, 1%, -1%, 5%, 28%, /, 1%
- Cc1occc1C(=O)N1CCCC(Nc2ccc(F)cc2)C1 (configuration not stated)
→ 1%, /, 8%, 0%, /, -24%, /, /
